Rango-impB inh = inhibitors of Rango-importin beta complex formation; Q14974; Rango CFP/YFP FRET sensor + importin beta, 45 min; Potency, µM (top dose mostly 92.2 µM), without a hit: at the top dose inhibition of complex formation; hit rate 0.031% among 340,000; AID 540263; active = rising FRET ratio curve, often small or poorly fitted; inconclusive = mostly compound fluorescence or quenching in the first reads; inactive = flat curves in all reads;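 further: potency means the concentration at half of the fitted maximal effect; 0% = DMSO wells and 100% = buffer wells lacking importin beta; nearly all actives have a fitted effect of over 15% in size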
Target sequence (Q14974 whole entry, looked up): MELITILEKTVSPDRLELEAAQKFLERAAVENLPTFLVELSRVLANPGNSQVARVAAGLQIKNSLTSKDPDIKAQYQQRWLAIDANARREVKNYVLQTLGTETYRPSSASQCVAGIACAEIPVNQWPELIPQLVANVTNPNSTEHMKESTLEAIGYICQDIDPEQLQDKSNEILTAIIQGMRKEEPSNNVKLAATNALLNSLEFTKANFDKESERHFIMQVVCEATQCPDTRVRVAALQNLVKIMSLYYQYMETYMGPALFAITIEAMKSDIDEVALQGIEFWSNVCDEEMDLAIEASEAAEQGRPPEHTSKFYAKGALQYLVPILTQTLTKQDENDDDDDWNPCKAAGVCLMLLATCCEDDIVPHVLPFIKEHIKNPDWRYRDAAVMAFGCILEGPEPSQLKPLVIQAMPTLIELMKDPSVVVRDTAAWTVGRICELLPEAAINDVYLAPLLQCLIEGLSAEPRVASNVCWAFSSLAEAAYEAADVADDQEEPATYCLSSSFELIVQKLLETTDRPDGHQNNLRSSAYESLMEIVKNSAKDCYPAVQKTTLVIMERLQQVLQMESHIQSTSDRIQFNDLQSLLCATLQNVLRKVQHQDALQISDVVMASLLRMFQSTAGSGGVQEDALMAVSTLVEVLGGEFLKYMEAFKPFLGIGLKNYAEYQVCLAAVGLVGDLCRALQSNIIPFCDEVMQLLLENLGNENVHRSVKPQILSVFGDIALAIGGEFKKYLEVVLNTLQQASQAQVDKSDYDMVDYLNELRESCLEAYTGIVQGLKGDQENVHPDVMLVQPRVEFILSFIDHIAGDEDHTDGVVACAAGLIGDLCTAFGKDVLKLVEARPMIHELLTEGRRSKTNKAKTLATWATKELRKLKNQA
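FRET biosensor (snurportin 1 IBB flanked by EYFP and cerulean), 50 nM, with compound 5 min, then 0.125 microM importin beta in PBS, 1 mM DTT, 0.02% Tween-20, 0.1% BSA. CFP/YFP ratio read after 45 min at room temperature; pre-read flags interference.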
Rango dissoc inh = inhibition of RanGTP-driven Rango-importin beta dissociation | AID 540253 | Potency, µM (titrated, usually from 46.1 µM), for the others: at the top dose activity change, negative = inhibition | hit rate 0.071% among 340,000 | Biochemical FRET Rango-importin beta, RanGTP-induced dissociation; active means falling FRET ratio curve, often poorly fitted, with flat reads before Ran was added; inconclusive means other falling curves, or compound fluorescence or quenching; inactive means flat or rising ratio curve;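 further: potency means the concentration at half of the fitted maximal effect; % of control where 0% means no effect; nearly all actives have a fitted effect of over 45% in size; -100% = wells without RanGTP and RCC1; the record marks most hits as doubtful in a second field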
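Rango FRET biosensor (snurportin-1 IBB flanked by N-terminal EYFP and C-terminal CFP10) at 0.1 uM, with 0.25 uM importin beta in PBS, 1mM DTT, 0.02% Tween-20, 0.1% BSA. 0.6 uM Ran, 2mM GTP and 0.2 uM RCC1 were then added for 45 min at room temperature. Inhibition read as loss of FRET rise.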
miR-21 FLuc = raises the signal of a miR-21 reporter. HeLa miR-21 FLuc reporter, luciferase, 48 h. Potency, µM (top dose mostly 38.3 µM), without a hit: at the highest dose reporter change, positive = more light. 340,000 tested, under 10 active; active = well fitted rising curve with a large enough effect; inconclusive = small, poorly fitted or top-dose-only effect; inactive = no such curve, though single readings can be large or run the other way;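 further: % of control where 0% means no effect; miR-21 action dims this reporter so a rising signal means less miR-21 action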
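Using DMEM plus 10% FBS, HeLa miR-21-FLuc cells are incubated with test compounds (final up to about 40uM) for 48 hours; firefly luciferase signal is then imaged following reagent-mediated lysis.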
GLA inh pH 4.5 = alpha-galactosidase A (human) inhibition, pH 4.5 | 230,000 tested, under 10 active | purified enzyme, 4-MU-alpha-Gal fluorescence, pH 4.5 | activity change, negative = inhibition, % at 105 µM | P06280; inconclusive = small, poorly fitted or top-dose-only inhibition, or a rising curve; inactive = flat fitted curve, though single readings scatter; no compound was filed as active;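 further: 0% = full activity with enzyme and -100% = basal without enzyme; dose as in the result columns while the protocol names 77 µM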
Starred values were filed as active, the others as inactive; ? = inconclusive; / = not tested or not shown; & = joins results of further samples; [ ] = another dose, or the depositor's remark. Not all compounds are listed. The share of hits here may be higher or lower than overall.

Assay codes – A = Rango-impB inh; B = Rango dissoc inh; C = miR-21 FLuc; D = GLA inh pH 4.5
COc1ccc(NC(=O)CSc2nnc(Cc3ccc(C)cc3)c(=O)n2N)cc1
  A = 0.4% | B = 17% | C = / | D = /

CC(=O)N1c2ccc(S(=O)(=O)NCCc3ccc(S(N)(=O)=O)cc3)cc2CC1C (centres undefined)
  A = 0.2% | B = 1% | C = 5% | D = /

CC(C)C(NS(=O)(=O)c1ccccc1)C(=O)N1CCCCCC1 (centres undefined)
  A = -1.8% | B = -7% | C = -3% | D = /

Cc1ccc(NC2=NC(=S)N(CC#N)C23CCCCC3)cc1
  A = 0.3% | B = -2% | C = -14% | D = -1

CCOc1ccc(C2CC(c3ccc(CC)cc3)n3nc(N)nc3N2)cc1 (centres undefined)
  A = -2.6% | B = -6% | C = -8% | D = 3

O=C(Nn1cnnc1)c1ccc(OC(F)(F)C(F)C(F)(F)F)cc1 (centres undefined)
  A = -2.6% | B = ? | C = -16% | D = /

Cc1ccc(-c2nc(CS(=O)CC(=O)NCCCc3ccccc3)c(C)o2)cc1 (centres undefined)
  A = 0.3% | B = -4% | C = -3% | D = /

Cc1ccc(C(O)(C(=O)NNc2ccc3ccccc3n2)c2ccc(C)cc2)cc1
  A = ? | B = -6%&3% | C = -4%&-1% | D = 3&-7

Cc1ccccc1N(CC(=O)NCCc1ccccc1)C(=O)c1csnn1
  A = -1.5% | B = -5% | C = 4% | D = /

O=C(NN1C(=O)C2C3C=CC(C4CC34)C2C1=O)c1ccccc1Cl (centres undefined)
  A = 0.3% | B = 13% | C = -8% | D = -1

COc1cccc(C(=O)Nc2ccc(NC(=O)C3CC3)nc2)c1
  A = -3.7% | B = 26% | C = -8% | D = /

CCOC(=O)Cn1c(=O)c2c(nc(Br)n2CC(=O)OCC)n(C)c1=O
  A = 5.3% | B = -11% | C = 1% | D = 2

COC(=O)/C=C/COc1ccccc1[N+](=O)[O-]
  A = 0.7% | B = -3% | C = -26% | D = -2

O=c1c(Cc2c(F)cccc2Cl)c(O)ccn1CCCN1CCOCC1
  A = 0.2% | B = 0% | C = -1% | D = -8

O=C(NC1CCCCC1)c1cc([N+](=O)[O-])[nH]n1
  A = -5.2% | B = -9% | C = -5% | D = -4

COc1ccc(C)cc1S(=O)(=O)NCCC1=CCCCC1
  A = -1.0% | B = 10% | C = -4% | D = -6

O=C(CSc1nnc(NC2CC2)s1)NN1C(=O)NC2(CCCCC2)C1=O
  A = ? | B = 18% | C = / | D = /

O=C(CCc1nnc(Cc2cccc(C(F)(F)F)c2)o1)NCCc1ccccc1F
  A = -1.2% | B = 14% | C = -46% | D = /

CCc1ccc(NC(=O)N[C@H](C(=O)O)C(C)CC)cc1 (some centres undefined)
  A = -1.6% | B = 3% | C = -3% | D = -1

Cc1ccc(NC(=O)Cn2cnc3c(OCc4ccccc4)ncnc32)cc1C
  A = -0.8% | B = 4% | C = / | D = /

O=C(Nc1cc(C(F)(F)F)ccc1-n1cncn1)c1ccc(Br)cc1
  A = -6.8% | B = -5% | C = -6% | D = -5

COCCCNC(=S)NC1CC2CCC(C1)N2Cc1ccccc1 (centres undefined)
  A = 3.3% | B = -15% | C = -6% | D = -24

COc1cc(C(=O)NCc2ccc(OCCN(C)C)cc2)cc(OC)c1OC
  A = -2.9% | B = 20% | C = / | D = -3&8

COc1ccccc1NS(=O)(=O)c1cc(C(=O)NCc2cccnc2)ccc1C
  A = 11% | B = -1% | C = / | D = /

COc1cccc(NC(=O)COc2ncnc3sc(C)c(C)c23)c1
  A = 4.2% | B = -1% | C = 1% | D = 6

C(#CCN1CCCC1)CC(c1ccccc1)c1ccccc1
  A = 1.2% | B = 2% | C = -5% | D = -13

Cc1noc(C)c1COc1cccc(C(=O)NCCc2c[nH]c3ccccc23)c1
  A = -3.7% | B = 0% | C = 16% | D = -12[21.1 µM]

Cc1cnc(CNC(=O)c2ccc3oc(Cc4ccccc4)nc3c2)[nH]1
  A = 6.6% | B = 19% | C = -10% | D = /

COc1ccc(N2C(=O)CC(N3CCN(c4ccc(C(=O)c5cccnc5)cc4)CC3)C2=O)cc1 (centres undefined)
  A = 0.0% | B = 0% | C = 0% | D = -3

Cc1nn(-c2ccccc2)c(N)c1C1(O)C(=O)Nc2ccc([N+](=O)[O-])cc21 (centres undefined)
  A = 1.5% | B = ? | C = 1% | D = -6

COc1ccc(C2C(C(=O)c3sc(C)nc3C)=C(O)C(=O)N2CCCn2ccnc2)cc1 (centres undefined)
  A = 1.5% | B = -11% | C = / | D = /

C/C(=N\NC(=O)C(=O)Nc1ccc(C)cc1)c1ccncc1
  A = 4.1% | B = -2% | C = -6% | D = -18

COc1cccc(S(=O)(=O)NCc2ccc(C(=O)N3CCN(Cc4ccccc4)CC3)cc2)c1
  A = 2.1% | B = 7% | C = 14% | D = /

O=C(Nc1cccc(S(=O)(=O)N2CCCC2)c1)c1ccncc1
  A = -1.0% | B = -7% | C = 2% | D = /

CC(C)NC(=S)NN(c1ccccc1)c1ccccc1
  A = 5.3% | B = 13% | C = -2% | D = 9

CCOc1c(Nc2cccc(Cl)c2)c(=O)c1=O
  A = -1.4% | B = 1% | C = 4% | D = -5

Cc1cc(=O)oc2cc(OC(C)C(=O)NCC3CCC(C(=O)O)CC3)c(Cl)cc12 (centres undefined)
  A = 0.0% | B = 3% | C = -1% | D = /

COC(=O)c1cc(OC)c(OC)cc1NC(=S)NC(=O)c1ccco1
  A = -0.4% | B = -8% | C = 3% | D = /

CCN(CC(=O)Nc1ccc2c(c1)OC(F)(F)O2)Cc1nc2ccccc2c(=O)[nH]1
  A = 4.1% | B = -8% | C = -5% | D = -5

COc1cc(O)ccc1/C=N/NC(=O)c1ccc([N+](=O)[O-])cc1
  A = 2.6% | B = 21% | C = 0% | D = -1

O=C1[C@H](Cc2ccccc2)NCCCC[C@@H](c2ccc(Cl)cc2)N1Cc1ccc(Cl)cc1
  A = -2.5% | B = 17% | C = / | D = /

COc1ccc(C(=O)C[n+]2ccc3c(c2)nnn3-c2ccccc2)cc1
  A = -4.4% | B = 1% | C = -10% | D = -8

O=C(/C=C/c1ccc(Cl)cc1Cl)N1CCc2ccccc21
  A = 1.6% | B = 0% | C = -83% | D = 3

Cc1cc(C(=O)O)ccc1[N+](=O)[O-]
  A = 0.2% | B = 7% | C = / | D = /

CCOC(=O)N1CCOCCOCCN(C(=O)OCC)CCOCC1
  A = 2.1% | B = 2% | C = -3% | D = 4

O=c1c2c(nc3c(-c4cccc(Br)c4)c[nH]n13)CCCC2
  A = -1.0% | B = -1% | C = -1% | D = 1

CC(C)(C)CN1CCNC(=O)C1CC(=O)NCCc1ccccc1F (centres undefined)
  A = 4.0% | B = -13% | C = -9% | D = -7

CC(=O)NCc1nc2ccccc2n1Cc1ccccc1C
  A = -1.4% | B = -2% | C = 1% | D = -2

CCOc1ccc(NC(=O)CN(C)S(=O)(=O)c2cccs2)cc1
  A = 3.9% | B = -5% | C = -41% | D = 3

CC(=O)Nc1cc2c(cc1Cl)Cc1cc(Cl)ccc1-2
  A = 3.1% | B = -12% | C = / | D = /

COc1ccc(NC2CCCN(C(=O)COc3ccc(Cl)cc3C)C2)cc1OC (centres undefined)
  A = -0.1% | B = 1% | C = 1% | D = /

CCOC(=O)c1sc(Nc2ccc(OCC)cc2)nc1C
  A = -0.7% | B = 20% | C = -38% | D = -13

O=c1cc(CN2CC(O)Cc3ccc4ccccc4c32)nc2sccn12 (centres undefined)
  A = 2.0% | B = 4% | C = -12% | D = 5

Cc1ccc(Nc2nnc(SCC(=O)NCc3ccco3)s2)cc1
  A = -2.1% | B = 3% | C = -2% | D = -1

COc1cc(/C=N/n2cnnc2-n2nc(C)cc2C)cc([N+](=O)[O-])c1O
  A = 4.1% | B = -10% | C = -12% | D = -6

COC(=O)CCC[C@H]1CC2(C[C@H](CCCO[Si](C)(C)C(C)(C)C)N1C(=O)OC(C)(C)C)OCCO2
  A = 2.0% | B = ? | C = / | D = /

O=C(NCCC1=CCCCC1)c1ccc(Cl)c(S(=O)(=O)Nc2ccccc2)c1
  A = 0.7% | B = 1% | C = 20% | D = -7

COc1ccc(C2CC(c3cccs3)=NN2C(=O)CCl)cc1OC (centres undefined)
  A = -3.7% | B = -7% | C = ? | D = /

CCC(=O)c1c[nH]c(C(=O)NCc2cccc(C(F)(F)F)c2)c1
  A = -1.2% | B = 2% | C = 1% | D = /

CC(=O)N1CCC(C(=O)OCc2ccccc2F)(c2ccccc2)CC1
  A = -0.5% | B = 4% | C = -10% | D = /

Single values from the results shown.
`CC(=O)Nc1cc2c(cc1Cl)Cc1cc(Cl)ccc1-2` | Rango-impB inh = 3.1%
`Cc1ccc(Nc2nnc(SCC(=O)NCc3ccco3)s2)cc1` | Rango dissoc inh = 3%
`CCOc1ccc(NC(=O)CN(C)S(=O)(=O)c2cccs2)cc1` | GLA inh pH 4.5 = 3

Next section.
Assay codes – A = Rango-impB inh; B = Rango dissoc inh; C = miR-21 FLuc; D = GLA inh pH 4.5
CCCCCn1c(CCNC(=O)c2cccs2)nc2ccccc21
  A = -0.5% | B = 9% | C = 19% | D = -2

CC(=O)Nc1ccc(NC(=O)C(C)Sc2nc3ccccc3c(=O)n2CC2CCCO2)cc1 (centres undefined)
  A = 0.6% | B = 5% | C = / | D = /

CCNc1nc(NCC)nc(Oc2ccc(OCC)nn2)n1
  A = -5.5% | B = 16% | C = -10% | D = 3

C=C(CCO)C1=CCN(S(=O)C(C)(C)C)[C@H]1CCO (some centres undefined)
  A = -0.4% | B = 1% | C = / | D = /

O=C(Nc1cc2c3c(c1)CC(=O)N3CCC2)c1ccco1
  A = 0.2% | B = ? | C = / | D = /

CCC(CO)Oc1cc(NCc2ccc(F)cc2)c2ncn(C(C)C)c2c1 (centres undefined)
  A = ? | B = ? | C = / | D = /

COc1ccc(N(Cc2cc(=O)[nH]c3ccccc23)C(=O)CCl)cc1
  A = 4.6% | B = 36% | C = ? | D = /

COc1ccc(Cl)cc1S(=O)(=O)NC(C)C(=O)NCc1ccccn1 (centres undefined)
  A = 0.4% | B = 7% | C = 1% | D = /

COCCCNC(=O)c1cn(C)c(=O)c2c1c1ccccc1n2C
  A = 1.5% | B = 9% | C = -1% | D = /

O=C(COC(=O)C1CCC(=O)N1)Nc1cccc([N+](=O)[O-])c1 (centres undefined)
  A = 0.2% | B = 0% | C = / | D = /

O=C(CN1C(=O)S/C(=C\c2ccc(Cl)cc2)C1=O)NC1C=CS(=O)(=O)C1 (centres undefined)
  A = -0.4% | B = 2% | C = 0% | D = /

COc1cccc(C(=O)Nc2ccccc2C(=O)NCC2CCCO2)c1 (centres undefined)
  A = -0.7% | B = -6% | C = 6% | D = /

Fetched one by one from the entries so far (5):
Assay codes – A = Rango-impB inh; B = Rango dissoc inh; C = miR-21 FLuc; D = GLA inh pH 4.5
COc1ccc(N(Cc2cc(=O)[nH]c3ccccc23)C(=O)CCl)cc1
  A = 4.6% | B = 36% | C = ? | D = /

O=C(Nc1cc2c3c(c1)CC(=O)N3CCC2)c1ccco1
  A = 0.2% | B = ? | C = / | D = /

O=C(CN1C(=O)S/C(=C\c2ccc(Cl)cc2)C1=O)NC1C=CS(=O)(=O)C1 (centres undefined)
  A = -0.4% | B = 2% | C = 0% | D = /

COc1cccc(C(=O)Nc2ccccc2C(=O)NCC2CCCO2)c1 (centres undefined)
  A = -0.7% | B = -6% | C = 6% | D = /

COc1ccc(Cl)cc1S(=O)(=O)NC(C)C(=O)NCc1ccccn1 (centres undefined)
  A = 0.4% | B = 7% | C = 1% | D = /

High-throughput results: PubChem, National Center for Advancing Translational Sciences (NCATS)
